Screens: PubChem BioAssay, ICCB-Longwood Screening Facility, Harvard Medical School
Sa growth inh – inhibitors of Staphylococcus aureus growth at 42 °C; S. aureus RN4220 growth, OD600, 20 h; hits give low values; relative growth, % (concentration not given with the values); 0.53% of 170,000 active; AID 720641;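 active = growth at 42 °C up to 50% and 20 or more points under that at 30 °C, or under 10% at both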;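 also: 300 nL library stock went into each well; scaled to the means of positive and negative controls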
HCMV UL50-53 inh – disrupts HCMV UL50-UL53 complex binding; inhibition, % (test concentration not listed); 0.15% of 190,000 active; HTRF UL50-UL53 interaction, normalized percent inhibition;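 active = both replicates at 50% or more, plus weaker picks with an unusually low signal ratio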;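 also: stock transfer was 100 nL into about 20 µL; 0% = negative control wells and 100% = wells with untagged competitor protein; inactives centre near -12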
GIV Gai3 FP – blocks GIV peptide binding to rat Galpha-i3 | Galpha-i3/FITC-GIV peptide fluorescence polarization, 90 min; hits give low values; scaled: aluminum fluoride 0%, vehicle 100% | percent of control (FP), % (no concentration beside the values) | 0.42% of 210,000 active | AID 1224905;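 active = replicate mean at 85% of control or lower, very high polarization wells dropped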;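 also: wells of about 15 µL received 100 nL stock; the first replicate is given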
Target sequence (P08753 whole entry, looked up): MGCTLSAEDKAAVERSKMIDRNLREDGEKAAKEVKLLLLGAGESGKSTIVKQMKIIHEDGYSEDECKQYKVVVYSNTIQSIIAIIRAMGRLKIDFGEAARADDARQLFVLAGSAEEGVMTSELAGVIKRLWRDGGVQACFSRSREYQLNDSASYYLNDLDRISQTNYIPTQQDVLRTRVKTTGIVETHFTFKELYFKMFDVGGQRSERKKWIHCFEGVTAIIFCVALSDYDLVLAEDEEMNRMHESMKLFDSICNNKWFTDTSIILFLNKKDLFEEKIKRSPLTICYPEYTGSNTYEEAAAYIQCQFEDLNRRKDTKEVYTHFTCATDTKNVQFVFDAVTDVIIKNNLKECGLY
Sa growth inh second temp – also measured in Sa growth inh; calls as there; relative growth, %; measured here: growth at 30 °C;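 optical density after 20 h as mean of two plates; 100% = untreated growth and lower means inhibition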
* hit, by the source's call; . = not tested or not shown; & = joins results of further samples.

SMILES | Sa growth inh | Sa growth inh second temp | HCMV UL50-53 inh | GIV Gai3 FP
CCOc1cc(C(=O)CCC(=O)N(C)Cc2cccnc2)ccc1O | 98 | 87 | -3 | .
CCCC(=O)Nc1ccc2nn(-c3ccc(CC)cc3)nc2c1 | 100 | 79 | -45 | 104
Cc1c(NC(=O)CC2(CC(=O)N3CCOCC3)CCCC2)c(=O)n(-c2ccccc2)n1C | 89 | 97 | -2 | .
Cc1ccc(C)c(CN2CCC(CNC(=O)NCc3ccccc3)CC2)c1 | . | . | -12 | 103
Cc1nc(N2CCCC2)ncc1C(=O)NCCCN1CCOCC1 | . | . | -33 | 100
COC(=O)n1ccc(C(=O)Nc2ccccc2F)n1 | 87 | 88 | -10 | 97
C=CCN1C(=O)C(=O)/C(=C(\O)c2ccccc2)C1c1ccccc1Cl (stereo not drawn) | 115 | 83 | -21 | .
COC(=O)CCn1nc(-c2ccc(Cl)cc2)c2ccccc2c1=O | 98 | 84 | . | 102
O=C(c1ccc(F)cc1)C1CCN(C(=O)C2CC2)CC1 | 98 | 88 | 2 | 96
O=C(COC(=O)C1C2CC3OC(=O)C1C3C2)Nc1ccccc1 (stereo not drawn) | 95 | 80 | 14 | 103
COc1ccccc1NCC(=O)c1ccc(Cl)cc1 | 92 | 77 | 4 | .
COc1cc2c(cc1NC(=O)c1cccnc1)oc1ccccc12 | 98 | 95 | -10 | .
COc1cc(OC)c(OC)cc1CN1CCN(c2ccccc2F)CC1 | 96 | 106 | 15 | 113
CCCN1CCC2(CC1)C(C#N)=C(S)NC(=O)C2C#N (stereo not drawn) | 88 | 115 | 0 | .
CC1=CS(=O)(=O)CC1Sc1nc2ccccc2[nH]1 (stereo not drawn) | 112 | 91 | . | 104
CCCCN(C)CCCNC(=O)CN1N=C(c2ccc(OC)cc2)CCC1=O | 97 | 90 | . | 103
CCCCOc1ccc(C2C(=O)N(C3CCCCC3)CC(=O)N2C2CCCCC2)cc1 (stereo not drawn) | 104 | 89 | . | 104
CC(NC(=O)C(O)(c1ccccc1)c1ccccc1)C(=O)O (stereo not drawn) | 113 | 90 | . | 106
Cc1sc(-c2noc(C(C)C)n2)cc1S(=O)(=O)N1CCC(C(=O)NC2CCCCC2)CC1 | . | . | -8 | 104
COC(CNC(=O)/C=C1\Sc2ccccc2N(Cc2ccccc2F)C1=O)OC | 95 | 83 | . | 101
CCCn1c(=O)c2c(nc3n2CCCN3Cc2ccco2)n(C)c1=O | 113 | 94 | . | 99
CCS(=O)(=O)c1ccc2oc(SCC(=O)Nc3ccc(Br)cc3F)nc2c1 | 86 | 90 | -17 | .
CCC(CC)C(=O)N1CCc2cc(OC)c(OC)cc2C1COc1ccccc1OC (stereo not drawn) | 80 | 82 | . | 100
Cc1ccccc1N(C)S(=O)(=O)c1nnc(NC(=O)c2ccccc2F)s1 | 104 | 67 | -18 | 104
Cc1ccc(-n2c(=O)[nH]c(=O)c3sc(N)nc32)cc1 | 90 | 83 | 3 | 109
O=C(CCn1c(=O)c2cccn2c2cccnc21)NC1CCCC1 | 95 | 98 | -8 | 108
CCOC(=O)CCN1CCCCC1 | 98 | 83 | -306 | 102
Cc1cc(C)nc(NC(c2ccccn2)c2c(NC(=O)c3ccccc3)sc(C)c2C)n1 (stereo not drawn) | . | . | -7 | 109
COc1cc2c(cc1OC)CN(C(=O)CNC(=O)C13CC4CC(CC(C4)C1)C3)CC2 | 92 | 81 | -14 | .
CC1(C)CC(=O)C2=C(C1)Nc1n[nH]c(-c3ccccc3)c1C2c1ccccc1Cl (stereo not drawn) | . | . | 32 | 103
Cc1ccc(S(=O)(=O)NCC(=O)O)cc1 | 96 | 86 | -5 | 112
O=C(Cn1nc(-c2ccccc2)ccc1=O)NCC1CCCO1 (stereo not drawn) | 103 | 97 | -9 | 103
Cc1cc(C)c(C#N)c(S(C)(=O)=O)n1 | 105 | 86 | 20 | 102
CCCC(O)c1ccco1 (stereo not drawn) | 105 | 84 | -4 | 100
COc1ccccc1N1CCN(c2cc(N3CCCC3)nc(C)n2)CC1 | 105 | 88 | -4 | 97
Cc1cc(C)nc(NS(=O)(=O)c2ccc(NC(=O)CSc3nc4c(cc3C#N)CCC4)cc2)n1 | . | . | -2 | 99
CCC(=O)N1c2nc(C(C)C)nn2C2(CCCCC2)[C@@H]2CCCC[C@@H]21 | 78 | 96 | 9 | 99
O=C(NCCOc1cccc(C(F)(F)F)c1)c1cccc(NC2=NC3CS(=O)(=O)CC3S2)c1 (stereo not drawn) | 110 | 100 | . | 107
Cc1ccc(OCCn2cc(C(=O)c3ccccc3)c3ccccc32)cc1 | 124 | 71 | . | 100
CCN(CC)C(=O)Nc1ccc(S(=O)(=O)NC)cc1 | 111 | 97 | -10 | 105
O=C(NCc1csc(-c2cccs2)n1)C1=Cc2ccccc2OC1 | 92 | 106 | -4 | 112
CS(=O)(=O)NCC1CCCO1 (stereo not drawn) | 100 | 95 | 9 | .
CSc1ccc(NC(=O)NC2CCN(c3ncccn3)CC2)cc1 | 104 | 97 | -9 | 99
COc1ccc(Oc2cc3c(cc2NS(=O)(=O)c2cc(OC)ccc2OC)n(C)c(=O)n3C)cc1 | . | . | -3 | 106
CCc1c(C(C)O)oc2ccc3c(C)cc(=O)oc3c12 (stereo not drawn) | 97 | 77 | . | 104

One compound at a time, from the list above. Order of screens: Sa growth inh, Sa growth inh second temp, HCMV UL50-53 inh, GIV Gai3 FP
Shown for `CSc1ccc(NC(=O)NC2CCN(c3ncccn3)CC2)cc1` → 104, 97, -9, 99
Shown for `Cc1ccc(S(=O)(=O)NCC(=O)O)cc1` → 96, 86, -5, 112

(listing goes on)
SMILES | Sa growth inh | Sa growth inh second temp | HCMV UL50-53 inh | GIV Gai3 FP
CCOc1ccc(-n2c(C)nc3cc(C(=O)NCc4ccc(C)cc4)ccc32)cc1 | 78 | 62 | . | 111
COc1cc(NC(=O)Cn2cc(S(=O)(=O)c3ccccc3)c(=O)c3ccccc32)cc(OC)c1 | 101 | 81 | -37 | 104
COc1ccccc1NC(=O)Cn1c(=O)n(CCCCC(=O)NC(C)C)c(=O)c2ccccc21 | . | . | -34 | 103
Cn1c(-c2ccccc2)cnc1SCc1ccccc1 | 94 | 119 | 6 | 97
O=C1C2C3C=CC(O3)C2C(=O)N1OCc1c(F)cccc1Cl (stereo not drawn) | 104 | 101 | 11 | 102
Cc1c(/C=N/N)c2ccccn2c1C#N | 93 | 96 | 1 | .
CC(c1ccc(F)cc1)N1CCCC1 (stereo not drawn) | 89 | 87 | -17 | .
Cn1c2ccccc2c2nc3ccccc3nc21 | . | . | -41 | 105
CCCC1CC(C)(/C(C)=N\NC(N)=S)OC1=O (stereo not drawn) | 102 | 96 | -21 | 101
Cn1c(=NC(=O)COCC(=O)N=c2sc3cccc(F)c3n2C)sc2cccc(F)c21 | 93 | 85 | -40 | 99
CCOC(=O)CSc1nc2cc3c(cc2c(=O)n1Cc1ccc(C(=O)NCCc2ccc(OC)c(OC)c2)cc1)OCO3 | 94 | 86 | . | 102
COc1cccc2sc(NC(=O)CS(=O)(=O)c3ccc(C)cc3)nc12 | 119 | 94 | . | 101
O=C(C1CCCCC1)N1CCCC1c1nc2ccccc2s1 (stereo not drawn) | . | . | 7 | 101
CCC12CN3CC(C)(CN(C1)C3c1c(C)n(C)c3ccccc13)C2=O (stereo not drawn) | 101 | 87 | -14 | 98
CCC(=O)Nc1ccc[n+](-c2nc3ccccc3nc2C(=C=[N-])C#N)c1 | 84 | 92 | -27 | .
COCC(C)Nc1ncnc2c1cnn2-c1ccc(C)c(C)c1 (stereo not drawn) | 105 | 85 | . | 106
O=C(CSc1nc2c(oc3ccccc32)c(=O)n1Cc1ccco1)Nc1cccc(Cl)c1 | 102 | 85 | -20 | 102
Cc1ccc(NC(=O)Cn2c(=O)n(Cc3ccc(F)cc3)c(=O)c3cccnc32)cc1C | 117 | 96 | -9 | 109
Cn1nc(C(=O)Nc2cc(F)ccc2F)c2c1-c1ccccc1SC2 | 103 | 97 | -14 | 100
CCOc1ccc(C(=O)Nc2ccc3nn(-c4ccc(OC)c(Cl)c4)nc3c2)cc1 | 107 | 82 | . | 106
O=C(CC1(O)C(=O)Nc2ccccc21)c1cccc(-n2cnnn2)c1 (stereo not drawn) | 82 | 80 | 4 | .
Cn1c2ccccc2c2c(C(=O)N3CCCCC3)cn(C3CCCC3)c(=O)c21 | 104 | 90 | . | 99
COC(=O)c1cn(NC(=O)C(c2ccccc2)C2CCCC2)c(=O)c2ccccc12 (stereo not drawn) | 100 | 87 | . | 98
Cc1ccc(C(C)C)c(OCC(=O)NCC2(N(C)C)CCCCC2)c1 | 113 | 86 | -1 | 105
CC1CN(C(=O)C(C)N2CCN(c3ncc(C(F)(F)F)cc3Cl)CC2)CC(C)O1 (stereo not drawn) | 100 | 97 | -19 | .
COc1ccc2c(c1)C(=O)N(C)C(=O)C2 | 86 | 92 | -15 | .
Cc1cccc(C)c1NC(=O)C(c1ccccc1)N(Cc1ccco1)C(=O)Cn1nnc2ccccc21 (stereo not drawn) | 89 | 82 | -31 | 98
COC(=O)c1cc(Br)c(Br)s1 | 115 | 96 | -6 | 100
Cc1ccc(CNC(=O)c2cc(C)nc3c2c(C)nn3-c2ccc(C)cc2)cc1 | 86 | 87 | . | 105
O=C1CC(C(=O)O)N=C(Nc2nc3ccccc3s2)N1 (stereo not drawn) | 105 | 89 | -11 | .

Pulled by compound from above (2):
SMILES | Sa growth inh | Sa growth inh second temp | HCMV UL50-53 inh | GIV Gai3 FP
O=C(CC1(O)C(=O)Nc2ccccc21)c1cccc(-n2cnnn2)c1 (stereo not drawn) | 82 | 80 | 4 | .
COc1ccc2c(c1)C(=O)N(C)C(=O)C2 | 86 | 92 | -15 | .

New compounds follow.
SMILES | Sa growth inh | Sa growth inh second temp | HCMV UL50-53 inh | GIV Gai3 FP
O=C(NCCn1c(-c2ccc(F)cc2)nc2cccnc21)NC1CCCCC1 | . | . | -2 | 109
Cc1cc(C)cc(NC(=O)c2sc3nc[nH]c(=O)c3c2C)c1 | 120 | 91 | . | 104
Cc1ccc2oc(=O)c3cc(C(=O)N(C)Cc4ccco4)sc3c2c1 | 95 | 92 | -12 | 101
CCn1c(=NC(=O)CN2C(=O)c3ccccc3C2=O)sc2cccc(F)c21 | 109 | 92 | -19 | 97
Cc1ccc2c(COC(=O)c3c(C)noc3C)cc(=O)oc2c1 | 88 | 83 | -34 | .
c1ccc2c(c1)COC1(CCCCC1)N2 | 103 | 79 | -1 | 111
CCOc1ccc(S(=O)(=O)N2CCN(C(=O)[C@H](C)NC(N)=O)CC2)cc1 | 101 | 87 | -32 | .
COC(C)(C)/C=C(\N)C(=O)c1ccccc1 | 97 | 102 | -2 | 96
CC(c1ccccc1)n1c(N)c(C#N)c2nc3ccccc3nc21 (stereo not drawn) | 88 | 65 | -50 | .
CC(=O)Nc1nc2c(s1)C(=O)CC(C)(C)C2 | 95 | 100 | 12 | .
COCCN=c1scc(-c2ccccc2F)n1/N=C/c1ccco1 | 125 | 87 | -21 | .
Cc1ccc(-n2ncc3c(=O)[nH]c(SCC(=O)N4CCCc5ccccc54)nc32)cc1 | 93 | 85 | . | 100
N#CC1(NC(=O)Cn2nnc3ccccc3c2=O)CCCC1 | 101 | 98 | -68 | .
Cc1nc(NCCN2CCOCC2)c2sc3nc4c(cc3c2n1)COC(C)(C)C4 | 112 | 88 | . | 106
COCCNC(=O)CSc1nnc2[nH]c(=O)cc(C)n12 | 102 | 92 | . | 97

Reformatted as labelled records: entries from further up
c1ccc2c(c1)COC1(CCCCC1)N2
  Sa growth inh: 103
  Sa growth inh second temp: 79
  HCMV UL50-53 inh: -1
  GIV Gai3 FP: 111
CCOc1ccc(S(=O)(=O)N2CCN(C(=O)[C@H](C)NC(N)=O)CC2)cc1
  Sa growth inh: 101
  Sa growth inh second temp: 87
  HCMV UL50-53 inh: -32
  GIV Gai3 FP: .
COC(C)(C)/C=C(\N)C(=O)c1ccccc1
  Sa growth inh: 97
  Sa growth inh second temp: 102
  HCMV UL50-53 inh: -2
  GIV Gai3 FP: 96
CC(c1ccccc1)n1c(N)c(C#N)c2nc3ccccc3nc21 (stereo not drawn)
  Sa growth inh: 88
  Sa growth inh second temp: 65
  HCMV UL50-53 inh: -50
  GIV Gai3 FP: .

Later entries
SMILES | Sa growth inh | Sa growth inh second temp | HCMV UL50-53 inh | GIV Gai3 FP
O=c1c(-c2ccn(-c3ccccc3)n2)c(O)c2ccccc2n1-c1ccccc1 | 99 | 93 | -10 | .
O=C(Nc1ccc2[nH]c(=O)oc2c1)c1ccccc1 | 104 | 105 | -1 | 114
COC(=O)Cn1ncc2c3ccccc3n(Cc3cccc(Cl)c3)c2c1=O | 104 | 87 | . | 124
CCOC(=O)C1=C[C@]2(CC)CCCN3CCc4c(n1c1ccccc41)[C@@H]32 | 92&97 | 94&92 | -40&-30&-12&-11&-14&-16 | 97&99
Cc1cc(C)cc(NC(=O)CCCc2nc(-c3ccccc3Cl)no2)c1 | 100 | 84 | -21 | 98
c1ccc(-n2ncc3c(N4CCCCC4)ncnc32)cc1 | 98 | 87 | -11 | .
Nc1c(C(=O)N2CCOCC2)sc2nc3c(cc12)CCCC3 | 115 | 93 | -73 | 105
CC(=O)NC(=O)c1cc2ccccc2oc1=Nc1ccc(Cl)cc1 | 105 | 80 | . | 102
Cc1cc(-c2c(C)sc(C)c2S(=O)(=O)N2CC=C(c3ccccc3)CC2)on1 | . | . | -5 | 106
O=C(Cn1ncc2c(=O)oc3ccccc3c21)Nc1nc2ccccc2s1 | 109 | 84 | . | 101
O=C1NC2(CCN(C(=O)NCC3CCCO3)CC2)Oc2ccccc21 (stereo not drawn) | 91 | 91 | -26 | 100
